Menin MLL FP FL: menin-MLL binding inhibition, fluorescein peptide | Fluorescence polarization, fluorescein-MLL peptide displacement from menin | FP activity change, % at 61.4 µM | 290,000 tested, under 10 active | AID 1766; inconclusive = falling polarisation curve, or a change in total fluorescence; inactive = total fluorescence flat and polarisation flat or rising; no compound was filed as active; the % refers to the polarisation; negative = inhibition;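 also: % of control where 0% means no effect; inhibitors lower the polarisation; unlabelled MLL peptide was the positive control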
ClpP mod: qHTS Assay for Activators of ClpP; ATP-dependent Clp protease proteolytic subunit (Bacillus subtilis (strain 168)), P80244; purified B. subtilis ClpP, FRET peptide cleavage, 20 min; Potency, µM (highest dose often 57.5 µM), for inactives: at the highest dose activity change, negative = active; hit rate 1.9% among 340,000; AID 651965, 2013; active = well fitted falling curve with a large enough effect; inconclusive = small, poorly fitted or top-dose-only effect; inactive = no such curve, though single readings can be large or run the other way; also: potency is read from the fitted curve at half-maximal effect; the source files actives as falling curves though it sought activators and does not explain the sign; nearly all actives have a fitted effect of over 65% in size; many hits overshoot -100%
Target sequence (P80244 whole entry, looked up): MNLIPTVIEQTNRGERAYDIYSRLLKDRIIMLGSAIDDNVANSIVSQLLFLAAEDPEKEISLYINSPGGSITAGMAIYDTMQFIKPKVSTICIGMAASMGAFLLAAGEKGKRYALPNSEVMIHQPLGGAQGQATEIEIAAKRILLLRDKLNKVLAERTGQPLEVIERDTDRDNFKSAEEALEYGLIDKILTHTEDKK
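ClpP 10 microg/mL final, pH 8 Tris/KCl buffer with BSA, glycerol, Tween-20; compound pinned in; FRET-FV substrate; RT 20 min; Ex320/Em430; ΔFRET vs ADEP 5.8 microM, DMSO, no enzyme.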
gsp ag: gsp mutant agonism | gsp mutant cells, cAMP HTRF, 30 min; control for the full effect not named in the record | Potency, µM (top dose mostly 76.9 µM), for inactives: top-dose activation (cAMP increase), most hits filed as activators | hit rate 0.13% among 340,000; active = well fitted activation curve with a large enough effect; inconclusive = small, poorly fitted or top-dose-only effect, or another doubt; inactive = no such curve, though single readings can be large or run the other way; cell line not stated here;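 also: phosphodiesterase inhibitor Ro 20-1724 added with compounds to block cAMP breakdown; potency is read from the fitted curve at half-maximal effect; nearly all actives have a fitted effect of over 60% in size; about a fifth of the inactives were tested at one dose only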
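Cells in DMEM/10% FBS with G418 were pretreated with compounds in DMSO plus […] (300 uM stock) for 30 min at 37C. cAMP was measured by HTRF (cAMP-d2 plus anti-cAMP antibody-K) after 30 min at room temperature.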
TRPML1 ag: agonists of human TRPML1 channel | TRPML1-expressing cells, Ca2+ dye fluorescence, FDSS; host cell line not named in the record; reference of the full effect not given here | activation, % (test concentration not listed) | hit rate 0.12% among 410,000; in the data active = activation above about 50%; inconclusive = about 30% to 50%; inactive = below about 30%; also: 0% is about no effect; the text of the record puts the active cut at 80%
Target sequence (Q9GZU1 whole entry, looked up): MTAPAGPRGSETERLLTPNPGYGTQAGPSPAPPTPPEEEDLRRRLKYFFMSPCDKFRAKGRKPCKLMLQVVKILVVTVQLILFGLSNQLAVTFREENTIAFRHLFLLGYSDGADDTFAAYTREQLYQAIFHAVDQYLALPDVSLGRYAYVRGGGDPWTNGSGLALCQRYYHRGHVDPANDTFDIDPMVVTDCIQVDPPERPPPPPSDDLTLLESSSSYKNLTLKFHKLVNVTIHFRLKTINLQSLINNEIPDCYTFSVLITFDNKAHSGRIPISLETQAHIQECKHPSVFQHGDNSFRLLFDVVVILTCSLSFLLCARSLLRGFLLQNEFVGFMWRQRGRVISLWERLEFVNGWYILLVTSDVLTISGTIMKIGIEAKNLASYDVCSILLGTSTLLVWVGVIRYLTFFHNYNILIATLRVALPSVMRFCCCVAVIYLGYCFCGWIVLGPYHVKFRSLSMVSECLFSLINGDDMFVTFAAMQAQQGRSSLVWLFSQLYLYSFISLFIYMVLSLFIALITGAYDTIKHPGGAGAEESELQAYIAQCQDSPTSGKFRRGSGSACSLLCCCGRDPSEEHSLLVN
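Tet-induced TRPML1-DL cells, 1,500 per well, cultured overnight, were loaded with a no-wash Ca2+ dye for 45–90 min. Calcium fluorescence was recorded on the FDSS for 110 s after compound addition, before the EC80 agonist (4 uM 54-4) was added.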
TRPML1 inh: blocks the human TRPML1 channel. Q9GZU1. TRPML1-inducible cells, Ca2+ dye fluorescence, FDSS; stronger effect = lower value; inhibition of EC80 agonist-evoked calcium signal. activity change, negative = inhibition, % (test concentration not listed). hit rate 0.02% among 390,000; in the data active means activity change below about -50%; inconclusive means about -30% to -50%; inactive means above about -30%;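 also: stimulus is agonist 54-4 at its EC80 concentration; % is scaled to controls: 0 for no effect and ±100 for the full control effect; compound concentration not given in the record; the text of the record puts the active cut at -80%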
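Calcium fluorescence in TRPML1-DL cells induced overnight with Tet: a 110 s read after compound pin addition, then a 110 s antagonist read after challenge with 54-4 at 4 uM final (EC80).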
gsp antagonist: antagonists of gsp mutant (McCune-Albright syndrome). gsp-mutant cells, cAMP HTRF, 30 min; control for the full effect not named in the record. Potency, µM (series often up to 76.9 µM), for inactives: at the top dose activity change, negative = inhibition, actives largely listed as inhibitors. hit rate 0.4% among 340,000; active = falling curve of any shape with a large fitted effect; inconclusive = falling curve, mostly with a smaller effect; inactive = flat or rising curve; cell line not stated here;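 also: intracellular cAMP measured with PDE inhibitor Ro 20-1724 present during compound exposure; potency is read from the fitted curve at half-maximal effect; % is scaled to controls: 0 for no effect and ±100 for the full control effect; nearly all actives have a fitted effect of over 65% in size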
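HTRF cAMP measurement after 30 min RT detection following 30 min, 37C compound treatment alongside […] (added as 300 uM solution) in G418-selected cells seeded at 2000/well and grown 16–24 h.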
* = called active by the depositor; & = joins results of further samples; [ ] = remark or other dose.

COc1ccc(CCN2C(=O)CSC2=S)cc1OC was read as Menin MLL FP FL 6.6, gsp ag 0%, TRPML1 ag 0.5, TRPML1 inh 9 and gsp antagonist 1%.
`CSc1nc(N(C)C)nc(N(C)C#N)n1` gave Menin MLL FP FL 0.1, ClpP mod 0.0%, gsp ag -4%, TRPML1 ag -0.3, TRPML1 inh 4 and gsp antagonist 8%.
For Cc1nnc(SCC2=C(C(=O)O)N3C(=O)C(NC(=O)Cn4nc(C(F)F)c(Cl)c4C)C3SC2)s1 (stereo unspecified) the results were Menin MLL FP FL 6.3, gsp ag -5%[15.4 µM], TRPML1 ag -0.5 and TRPML1 inh -5.
Screening COc1cccc2c(SCC(=O)N/N=C/c3ccc(O)cc3O)cc(C)nc12 returned Menin MLL FP FL 9.0, gsp ag -36%[inhibitor], TRPML1 ag 0.0, TRPML1 inh -9 and gsp antagonist -8%.
O=C(O)CCCC(=O)Nc1cccc(C(=O)Nc2ccccc2C(=O)O)c1 was read as Menin MLL FP FL 0.7, gsp ag 6%[15.4 µM], TRPML1 ag 0.1 and TRPML1 inh 24.
`CCCCCCn1c(=O)n2n(c1=O)[C@@H]1CN(S(=O)(=O)c3ccc(C)cc3)C[C@]1(O)[C@@H](OC(=O)NCc1ccco1)C2` gave ClpP mod 1.6%, gsp ag inconclusive, TRPML1 ag 0.0 and TRPML1 inh 10.
`NC(=O)Cn1c(=O)n(-c2ccccc2)c(=O)c2oc3ccccc3c21` gave Menin MLL FP FL -6.6, gsp ag -2%, TRPML1 ag -0.7, TRPML1 inh 0 and gsp antagonist 2%.
`CCOC(=O)[C@@H]1CCNC[C@@H]1c1ccccc1` gave Menin MLL FP FL 0.7, ClpP mod -2.4%, gsp ag -2%, TRPML1 ag -0.6, TRPML1 inh 9 and gsp antagonist 13%.
`CCc1ccc(NC(=O)Cn2c(=O)c3cccn3c3ccccc32)cc1` gave Menin MLL FP FL 3.2, ClpP mod -21%&4.4%, gsp ag 22%, TRPML1 ag -1.3&1.8, TRPML1 inh 18&2 and gsp antagonist 2%.
For CCOc1ccc(C(=O)CSc2nnc3cc(C)c4ccccc4n23)cc1 the results were ClpP mod -2.7%, TRPML1 ag -0.1 and TRPML1 inh -10.

Entries shown so far containing two or more sulfur atoms:
COc1ccc(CCN2C(=O)CSC2=S)cc1OC was read as Menin MLL FP FL 6.6, gsp ag 0%, TRPML1 ag 0.5, TRPML1 inh 9 and gsp antagonist 1%.
For Cc1nnc(SCC2=C(C(=O)O)N3C(=O)C(NC(=O)Cn4nc(C(F)F)c(Cl)c4C)C3SC2)s1 (stereo unspecified) the results were Menin MLL FP FL 6.3, gsp ag -5%[15.4 µM], TRPML1 ag -0.5 and TRPML1 inh -5.

Next section:
Screening Cc1nn(CC(C)C)c(Cl)c1C(=O)N(C)CC(=O)Nc1c(Cl)cccc1Cl returned ClpP mod -2.2%, gsp ag -15%[15.4 µM], TRPML1 ag 0.0, TRPML1 inh 1 and gsp antagonist 2%.
`C/C(=N\NC(=S)Nc1ccccc1)C1Cc2ccccc2C(=O)O1` (stereo unspecified) gave Menin MLL FP FL 1.9, gsp ag 29%[15.4 µM], TRPML1 ag 2.1, TRPML1 inh 11 and gsp antagonist -11%.
Screening O=C1Nc2cc(C(=O)N3CCC(N4CCCCC4)CC3)ccc2S/C1=C\c1ccccc1 returned ClpP mod -2.3%, gsp ag -4%, TRPML1 ag 1.3, TRPML1 inh 32 and gsp antagonist -4%.
`c1ccc(Cn2ccnc2SCc2nnc(-c3ccccc3)o2)cc1` gave Menin MLL FP FL 2.4, ClpP mod 0.4%, gsp ag 8%, TRPML1 ag 4.3, TRPML1 inh 20 and gsp antagonist -16%.
For O=C(CCNC(=O)c1ccccc1)Oc1ccc([N+](=O)[O-])cc1 the results were Menin MLL FP FL -8.9, ClpP mod 1.0%, gsp ag -16%, TRPML1 ag -0.6, TRPML1 inh 7 and gsp antagonist -12%.
Screening Brc1cccc(-c2n[nH]c(-c3ccccc3)n2)c1 returned Menin MLL FP FL 0.6, ClpP mod -1.5%, gsp ag -4%, TRPML1 ag -0.4, TRPML1 inh -8 and gsp antagonist inconclusive.
Screening COc1ccccc1C(=O)NC(CCSC)C(=O)OC(C)C(N)=O (stereo unspecified) returned Menin MLL FP FL 3.4, gsp ag -11%[15.4 µM], TRPML1 ag 0.6, TRPML1 inh -2 and gsp antagonist 1%.
`CC#CCN1c2ccccc2[C@]23C[C@@H](C(=O)OC)N=C2NC(C(=O)OC)=C(C(=O)OC)[C@H]13` gave Menin MLL FP FL 1.3[11.7 µM], ClpP mod -0.2%, TRPML1 ag 0.9, TRPML1 inh 35 and gsp antagonist -4%.
Cc1cc(C)cc(OCC(=O)OCC(=O)c2ccc3c(c2)NC(=O)CO3)c1 was read as Menin MLL FP FL 0.3, ClpP mod 0.1%, gsp ag inconclusive, TRPML1 ag 0.8, TRPML1 inh 3 and gsp antagonist 8%.
`COc1ccc(CC(NC(C)=O)C(=O)NC2CCN(C(=O)C3CCCCC3)CC2)cc1OC` (stereo unspecified) gave ClpP mod -1.3%, gsp ag inconclusive, TRPML1 ag 0.8, TRPML1 inh 25 and gsp antagonist 2%.
`CCc1ccc(C(CNC(=O)c2ccc3c(=O)n(-c4ccccc4F)c(=S)[nH]c3c2)N(C)C)cc1` (stereo unspecified) gave Menin MLL FP FL 0.8, gsp ag 19%[15.4 µM], TRPML1 ag -0.6, TRPML1 inh -5 and gsp antagonist -17%.
CCN(C(=O)COC(=O)c1ccccc1O)c1nc2ccccc2s1 was read as gsp ag 7%, TRPML1 ag 0.0, TRPML1 inh -11 and gsp antagonist 1%.
`Cc1onc(C(=O)Nc2ccc(OC(F)(F)F)cc2)c1[N+](=O)[O-]` gave ClpP mod -1.8%, gsp ag 6%, TRPML1 ag 1.1, TRPML1 inh -25 and gsp antagonist 10%.
Screening CCOC(=O)C1=C(N)n2c(s/c(=C\c3ccco3)c2=O)=C(C(=O)OC(C)C)C1c1ccco1 (stereo unspecified) returned Menin MLL FP FL 16, ClpP mod -1.1%, gsp ag -31%[inhibitor], TRPML1 ag -0.1, TRPML1 inh 12 and gsp antagonist -4%.
For COc1cccc(Nc2sc(C(=O)c3ccc4c(c3)OCO4)c(N)c2S(=O)(=O)c2ccccc2)c1 the results were ClpP mod -25%, TRPML1 ag 0.9 and TRPML1 inh 13.
For Cc1ccc(-n2sc3ccccc3c2=O)cc1 the results were Menin MLL FP FL 2.1, ClpP mod 1.1%, gsp ag 1%, TRPML1 ag 2.7, TRPML1 inh 18 and gsp antagonist -21%.
C(=N\N(Cc1ccccc1)c1ccccc1)/c1cccnc1 was read as Menin MLL FP FL 3.7, ClpP mod 1.0%, gsp ag -47%[inhibitor], TRPML1 ag 1.5, TRPML1 inh -14 and gsp antagonist -10%.
Screening Cc1noc(C)c1COc1ccc(C(=O)N2CCN(c3cccc(Cl)c3)CC2)cc1 returned ClpP mod -1.9%, gsp ag -15%[15.4 µM], TRPML1 ag 0.1, TRPML1 inh -8 and gsp antagonist -8%.
`COc1ccccc1N1CCN(C(=O)Cn2nnc(-c3cccs3)n2)CC1` gave Menin MLL FP FL -2.4, ClpP mod -2.5%, gsp ag -39%[inhibitor], TRPML1 ag -0.5, TRPML1 inh 3 and gsp antagonist -8%.
Cc1cccc(CSc2nc3c(c(=O)[nH]2)CCCC3)c1 was read as Menin MLL FP FL 6.8, ClpP mod 0.6%, gsp ag 9%[15.4 µM], TRPML1 ag 0.6, TRPML1 inh 1 and gsp antagonist 1%.
Screening CCOc1cc(/C=N/N=C2/NC(=O)C(CC(=O)O)S2)ccc1OCc1ccc(Cl)cc1 (stereo unspecified) returned Menin MLL FP FL 4.3, gsp ag 42%[15.4 µM], TRPML1 ag -0.3, TRPML1 inh 2 and gsp antagonist -1%.
Cc1ccnc(NS(=O)(=O)c2ccc(NC(=O)CCOc3ccccc3)cc2)n1 was read as Menin MLL FP FL 3.0, ClpP mod 1.3%, gsp ag -16%, TRPML1 ag 1.1, TRPML1 inh -9 and gsp antagonist 3%.
O=[N+]([O-])c1ccccc1S(=O)(=O)N(CC(O)CN1CCCCC1)c1ccccc1 (stereo unspecified) was read as Menin MLL FP FL 0.5, gsp ag -11%, TRPML1 ag 1.0, TRPML1 inh -14 and gsp antagonist 12%.
For COC(=O)c1ccc(CNC(=O)Cn2cnc(C(=O)Nc3ccc(C)c(C)c3)n2)cc1 the results were ClpP mod 0.8%, TRPML1 ag -0.9, TRPML1 inh -16 and gsp antagonist 6%.
O=C(NCN1C(=O)C2C3C=CC(C3)C2C1=O)Nc1cccnc1 (stereo unspecified) was read as Menin MLL FP FL 3.1, ClpP mod 0.5%, gsp ag -25%, TRPML1 ag 0.9, TRPML1 inh -5 and gsp antagonist 4%.
CC(C(N)=O)N1C(=O)NC2(CCCc3ccccc32)C1=O (stereo unspecified) was read as Menin MLL FP FL 0.1, gsp ag 0%, TRPML1 ag -0.1, TRPML1 inh -1 and gsp antagonist -7%.
CCOc1ccc(-n2cnnn2)cc1S(=O)(=O)NC1CC1 was read as Menin MLL FP FL -0.5, ClpP mod -1.7%, gsp ag 18%, TRPML1 ag -0.3, TRPML1 inh -3 and gsp antagonist 16%.
Cc1cccc(NC(=O)c2cc(S(=O)(=O)N3CCCCC3)ccc2Cl)n1 was read as gsp ag 25%[15.4 µM], TRPML1 ag 2.0, TRPML1 inh -2 and gsp antagonist -4%.
COc1ccc(CN2C3CCCC2CC(NC(=O)c2cccc(F)c2)C3)cc1 (stereo unspecified) was read as Menin MLL FP FL -2.3, ClpP mod 0.5%, gsp ag 7%, TRPML1 ag -0.1, TRPML1 inh 5 and gsp antagonist 11%.
O=C(CCc1nnc2ccc(N3CCC4(CC3)OCCO4)nn12)N1CCCCC1 was read as Menin MLL FP FL -0.3, ClpP mod 0.6%, gsp ag inconclusive, TRPML1 ag -0.4, TRPML1 inh -5 and gsp antagonist -1%.
`CC(=O)Nc1ccc(S(=O)(=O)Nc2nc3ccccc3nc2N2CCc3ccccc3C2)cc1` gave Menin MLL FP FL 1.5, ClpP mod -27%, gsp ag 4%, TRPML1 ag 0.2, TRPML1 inh 17 and gsp antagonist -25%.
For O=C(CC(=O)NN=Cc1ccc2c(c1)CCC2)NN=Cc1ccc2c(c1)CCC2 the results were ClpP mod 2.9%, gsp ag 12%, TRPML1 ag 4.9, TRPML1 inh 43 and gsp antagonist -2%.
Screening Cc1ccc(C)n1-c1cccc(C(=O)Nc2ccccc2)c1 returned Menin MLL FP FL 1.8, ClpP mod -1.0%, gsp ag 10%, TRPML1 ag 0.9, TRPML1 inh -7 and gsp antagonist -2%.
COc1cc(Nc2nc(SCc3ccc(Cl)cc3)nc3ccccc23)cc(OC)c1 was read as ClpP mod 35µM*, TRPML1 ag 1.1 and TRPML1 inh 25.
